SARS PLP yeast: qHTS of Yeast-based Assay for SARS-CoV PLP; S. cerevisiae expressing SARS-CoV PLpro, growth rescue; control for the full effect not named in the record; Potency, µM (top dose mostly 32.9 µM), for the others: top-dose activity, positive = growth rescue; 330,000 compounds, 0.19% hits; AID 485353, 2010; active means well fitted rising curve with a large enough effect; inconclusive means small, poorly fitted or top-dose-only effect; inactive means no such curve, though single readings can be large or run the other way; also: 0% is about no effect; nearly all actives have a fitted effect of over 55% in size; growth read by luminescence after 48 h
NS1 function inh: qHTS Assay for Inhibitors of Influenza NS1 Protein Function. S. cerevisiae slowed by influenza A NS1, growth recovery by OD600. Potency, µM (doses to about 46.1 µM), without a hit: at the top dose activity, positive = more growth. 270,000 compounds, 0.4% hits; active means well fitted rising curve with a large enough effect; inconclusive means small, poorly fitted or top-dose-only effect; inactive means no such curve, though single readings can be large or run the other way; also: nearly all actives have a fitted effect of over 50% in size
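In this qHTS, NS1 from influenza A is expressed in budding yeast, where it slows growth. Cells are switched from glucose to 2% galactose medium (pH 6.0, -URA), treated with compound, and growth recovery is read at OD600.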
MARV entry inh: qHTS for inhibitors of binding or entry into cells for Marburg Virus. Marburg virus pseudotyped entry inhibition, cell reporter; control for the full effect not named in the record; about a third of the inactives were read at about 46 µM. Potency, µM (doses to about 37.8 µM), for inactives: at the highest dose activity change, negative = inhibition, actives largely listed as inhibitors. 300,000 compounds, 1.8% hits. AID 540276, 2011; active = well fitted inhibition curve with a large enough effect; inconclusive = small, poorly fitted or top-dose-only effect, or effect the other way; inactive = flat fitted curve, though single readings scatter; tested in HEK293 cells; about a fifth of its hits are not listed in these tables; also: % is scaled to controls: 0 for no effect and ±100 for the full control effect; luciferase read-out
2A StopGo: High Throughput Screening for Foot and Mouth Disease Virus Antivirals; human cells with a luciferase reporter of 2A StopGo recoding; control for the full effect not named in the record; Potency, µM (titrated, usually from 57.9 µM), for the others: at the highest dose signal change, negative = less light; 410,000 compounds, 1.2% hits; AID 1159524, 2015; active = well fitted falling curve with a large enough effect; inconclusive = small, poorly fitted or top-dose-only effect; inactive = no such curve, though single readings can be large or run the other way; tested in HEK293T cells; also: % is scaled to controls: 0 for no effect and ±100 for the full control effect; nearly all actives have a fitted effect of over 45% in size; luciferase light after 4 h
LASV entry inh: qHTS for Inhibitors of binding or entry into cells for Lassa Virus; Lassa virus pseudotype entry inhibition, cell reporter; control for the full effect not named in the record; Potency, µM (series often up to 37.9 µM), for the others: at the highest dose activity change, negative = inhibition, actives largely listed as inhibitors; 300,000 compounds, 1.2% hits; AID 540256, 2011; active means well fitted inhibition curve with a large enough effect; inconclusive means small, poorly fitted or top-dose-only effect, or effect the other way; inactive means flat fitted curve, though single readings scatter; tested in HEK293 cells; also: % is scaled to controls: 0 for no effect and ±100 for the full control effect; nearly all actives have a fitted effect of over 50% in size; luciferase read-out
Cruzain Triton: qHTS Assay for Promiscuous and Specific Inhibitors of Cruzain (with detergent). Cruzipain (Trypanosoma cruzi), P25779. Potency, µM, for inactives: max response, negative = inhibition, usual class: inhibitors. purified cruzain, Z-FR-AMC fluorescence, 0.01% Triton. 200,000 compounds, 0.43% hits;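 also: plate controls were neutral wells for no effect and buffer without enzyme for full effect; nearly all actives have a fitted effect of over 40% in size; top concentration of the series not given in the record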
Target sequence (P25779 123-467 limits assumed): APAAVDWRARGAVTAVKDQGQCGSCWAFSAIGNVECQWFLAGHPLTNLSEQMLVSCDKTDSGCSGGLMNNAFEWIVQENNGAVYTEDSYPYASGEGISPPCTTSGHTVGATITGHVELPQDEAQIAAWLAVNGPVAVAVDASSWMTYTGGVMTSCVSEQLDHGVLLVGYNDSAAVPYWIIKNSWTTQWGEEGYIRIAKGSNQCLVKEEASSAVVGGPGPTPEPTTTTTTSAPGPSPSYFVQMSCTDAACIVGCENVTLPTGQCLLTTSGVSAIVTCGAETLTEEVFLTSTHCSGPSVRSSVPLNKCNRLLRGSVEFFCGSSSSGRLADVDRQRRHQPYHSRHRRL
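Purified cruzain (1.5 nM final) was preincubated with compounds for 15 min at room temperature in 100 mM sodium acetate pH 5.5, 5 mM DTT, 0.01% Triton X-100. Reaction started with 2 uM Z-FR-AMC; AMC fluorescence change over 60 s gave activity.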
RE007 growth inh: qHTS Assay for Inhibitors of the HIV-1 protein Vpr; S. pombe RE007 Vpr strain, BacTiter-Glo ATP luminescence, 24 h; control for the full effect not named in the record; Potency, µM (series often up to 92.2 µM), inactives show top-dose activity change, negative = less growth; 360,000 compounds, 0.21% hits; active = well fitted falling curve with a large enough effect; inconclusive = small, poorly fitted or top-dose-only effect; inactive = no such curve, though single readings can be large or run the other way;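 also: % is scaled to controls: 0 for no effect and ±100 for the full control effect; nearly all actives have a fitted effect of over 50% in size; the assay follows cell death caused by Vpr and the record does not say whether a fall means rescue or toxicity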
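Fission yeast strain RE007, carrying one chromosomally integrated HIV-1 vpr copy, was seeded at OD 0.01 in PMG+AL medium with 23 nL pinned compound. After 24 h at 30 °C and 99% humidity, viability was read by BacTiter-Glo luminescence.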
Cruzain inh noDet: qHTS Assay for Promiscuous and Specific Inhibitors of Cruzain (without detergent); Potency, µM, inactives show max response, negative = inhibition, usual class: inhibitors; purified cruzain, Z-FR-AMC fluorescence, no detergent; Cruzipain (Trypanosoma cruzi), P25779; 200,000 compounds, 2.3% hits;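 also: plate controls were enzyme without inhibitor for no effect and buffer without enzyme for full effect; nearly all actives have a fitted effect of over 40% in size; top concentration of the series not given in the record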
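Purified cruzain at 1.5 nM, pre-incubated 15 min with compound at room temperature in 100 mM sodium acetate pH 5.5, 5 mM DTT, 0.00005% Triton X-100. Reaction started with 2 uM Z-FR-AMC; AMC fluorescence increase over 60 s gives rate.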
* marks the source's active call; other numbers are inactive results; ? = inconclusive; . = not tested or not shown; & = joins results of further samples; [ ] = dose if it differs, or a comment. Unless noted, calls follow the shape of the dose curve; as a rule, active = well fitted curve in the direction sought with a large enough effect; inconclusive = small, poorly fitted or top-dose-only effect, or another doubt; inactive = no such curve, though single readings can be large; an effect the other way counts as inactive or inconclusive. Potency is read from the fitted curve at half-maximal effect.

SMILES	SARS PLP yeast	NS1 function inh	MARV entry inh	2A StopGo	LASV entry inh	Cruzain Triton	RE007 growth inh	Cruzain inh noDet
CC1CC(C)CN(C(=O)CSc2nnc(-c3ccc(Cl)s3)o2)C1 (stereo not given)	-11%	-66%	1%	0%	-1%	-4.5%	6%	-11%
Cc1c(NS(=O)(=O)c2ccc(N3CCN(C)CC3)c([N+](=O)[O-])c2)c(=O)n(-c2ccccc2)n1C	0%	-2%	-9%[46.1 µM]	-7%	4%	.	0%	.
Cc1cc(S(=O)(=O)N2CCOCC2)ccc1OCC(=O)N1CCCC1	-4%	-15%	-11%[46.1 µM]	10%	.	.	-5%	.
Cn1cc(Br)c(-c2cccc(N3C(=O)CCCC3=O)c2)n1	1%	3%	22%	-1%	5%	.	-8%	.
Cc1csc(NC(=O)Cc2ccccc2[N+](=O)[O-])n1	3%	2%	0%	2%	5%	-4.2%	11%	-16%
NC(=O)c1ccc(-n2nnnc2SCC(=O)NC2CCCCC2)cc1	-3%	10%	9%[46.1 µM]	-5%	5%[46.1 µM]	.	9%	.
FC(F)(F)c1nc(N2CCN(c3ccccc3)CC2)nc2c1CCCCC2	0%	-4%	?	?	-3%	-0.1%	8%	?
O=C(Nc1cc([N+](=O)[O-])ccc1O)c1cccc(C(=O)Nc2cc([N+](=O)[O-])ccc2O)c1	-11%	0%	.	4%	.	.	1%	.
O=C1NC(=O)C(=Cc2ccc(Oc3ccc([N+](=O)[O-])cc3)cc2)C(=O)N1	-1%	-7%	-22%	-22%	3%	.	-4%	.
CCc1c(C)nc(N2CCN(c3cccc(OC)c3)CC2)[nH]c1=O	-5%	16%	.	-22%	.	.	8%	.
COc1ccccc1C(=O)NC(CCSC)C(=O)NCC(c1cccs1)N(C)C (stereo not given)	1%	.	-5%	30%[activator]	-3%	.	-11%	.
O=C(NC1CC1)C1CCN(Cc2cnn(-c3ccccc3)c2-n2cccc2)CC1	0%	6%	16%	19%	?	-3.5%	-1%[3.69 µM]	-6%
CCCCn1c(N)c(N(CC(C)C)C(=O)c2ccc3c(c2)NC(=O)C(C)S3)c(=O)[nH]c1=O (stereo not given)	4%	11%	?	-5%	-1%	.	-9%	.
CNC(=O)N1c2ccccc2CCc2ccccc21	2%	4%	.	-15%	.	.	1%	.
Cc1cc(C)cc(OCc2nc(-c3cccnc3)no2)c1	-1%	-1%	-12%[46.1 µM]	-5%	2%[46.1 µM]	.	13%	.
O=C(CSc1cn(CC(=O)N2CCCCCC2)c2ccccc12)Nc1ccccc1F	.	.	.	?	-4%[46.1 µM]	-7.3%	.	-19%
O=C(c1ccc(NC2=NC3CS(=O)(=O)CC3S2)cc1)N1CCN(c2ccccc2F)CC1 (stereo not given)	-6%	-7%	.	4%	.	.	-3%	.
O=C(NCN1C(=O)C2C3C=CC(C3)C2C1=O)Nc1ccccn1 (stereo not given)	-4%	1%	16%	-20%	-3%	-0.8%	-14%	-3%
COc1ccc(COC(=O)Nc2cc3c(C(F)(F)F)nn(C)c3s2)cc1	-8%	21%	-1%	?	-16%	-5.1%	-24%	3%
Cc1cc(F)ccc1S(=O)(=O)Nc1ncnc2scc(-c3ccc(F)cc3)c12	4%	-2%	7%	-26%	-31%	-9.2%	4%	4%
COc1ccccc1[C@@H]1C(c2cccc(Cl)c2)=NN(c2ccc(Br)cc2)[C@H]1C(=O)N1CCOC1=O	6%	6%	5%	-14%	2%	0.3%&-6.1%	7%	8.9µM*
Cc1cc(/C=N/N2CCN(C)CC2)c(C)n1-c1ccc(Cl)cc1	-2%	5%	?	-17%	?	.	10%	.
CCCCSc1nc2c(c(=O)n1CC)SC(C)C2 (stereo not given)	-13%	-101%	.	0%	.	1.0%	4%	-5%
Clc1ccc2c(c1)C(C1=NCCN1)c1ccccc1CS2 (stereo not given)	10%	-7%	1.3µM*	-2%	?	-3.4%	2%	6%
Cc1cc(=O)oc2cc(NC(=O)c3c(Cl)cnn3C)ccc12	1%	-3%	.	25%	.	.	-13%	.
Cc1cccc(NC(=S)Nc2ccc(N3CCOCC3)cc2)c1C	0%	?	?	-6%	0%	-3.1%	25%	9%
CCOC(=O)c1c(NC(=O)C2CCN(S(=O)(=O)c3cccs3)CC2)sc(C)c1C	-5%	-13%	-21%&-21%	-17%	-25%	-3.9%	18%	-18%
Cc1cc(/C=N/NC(=O)C(O)(c2ccccc2)c2ccccc2)c(C)n1-c1cccc(C(=O)O)c1	0%	11%	.	1%	.	.	-2%	.
O=C(CSc1ncc2c(n1)-c1ccc(Cl)cc1N(Cc1ccccc1)S2(=O)=O)Nc1ccccc1C(F)(F)F	.	.	.	-6%	-27%[46.1 µM]	-1.7%	.	?
CN(c1ccccc1C(=O)NCC1CCCO1)S(C)(=O)=O (stereo not given)	2%	1%	2%	2%	0%	-2.5%	-7%	-4%
O=C(NC1CCCN(Cc2ccccc2F)C1)c1cccs1 (stereo not given)	5%	6%	.	-7%	.	.	1%	.
COc1ccc(NC(=O)C2(S(=O)(=O)c3ccc(C)cc3)CC2)cc1	-1%	21%	5%[46.1 µM]	1%	-18%[46.1 µM]	.	2%	.
COc1ccc(C(=O)N/N=C/c2ccc(OC)c(COc3ccc(F)cc3)c2)cc1	22%	-10%	?	-12%	-29%	.	-3%	.
COc1ccc(CCn2c(O)c(/C=N/N3CCOCC3)c(=O)[nH]c2=O)cc1OC	0%	2%	.	?	.	.	6%	.
COCCCNC(=O)c1ccc(Cn2c(=O)c3cccn3c3cccnc32)cc1	.	.	.	9%	-18%[46.1 µM]	-4.2%	.	6%
CCCOc1ccc(C(=O)CCN2CCN(C(=O)OCC)CC2)cc1	-5%	.	-27%[46.1 µM]	-22%	?	.	32µM*	.
COc1cccc(CNc2cc(C)ccn2)c1O	3%	11%	12%[46.1 µM]	25%	-7%[46.1 µM]	.	-10%	.
COc1ccc(NC(=O)Cn2nnc(-c3ccccc3NC(=O)c3ccco3)n2)cc1	2%	2%	11µM*	-43%	?	-2.5%	-1%	-12%
COc1c(Br)cc([N+](=O)[O-])c(OC)c1C(=O)NC(=O)Nc1c(Cl)cccc1Cl	0%	-2%	10%[46.1 µM]	-13%	-12%[46.1 µM]	.	-27%	.
Cc1cccc(NC(=O)C2Cc3ccccc3O/C2=N\O)c1 (stereo not given)	0%	3%	.	54%[activator]	.	.	0%	.
Cc1cc(C)c2sc(NC(=O)CN3C(=O)CCC3=O)nc2c1	2%	2%	.	-12%	.	.	-12%	.
CC(=O)Nc1ccc(N(C(=O)CNC(=O)c2ccco2)C(C(=O)NCc2ccco2)c2ccccc2F)cc1 (stereo not given)	-2%	4%	?	-15%	30%	.	0%	.
CN1c2ccccc2C(O)=C(C(=S)Nc2ccccc2)S1(=O)=O	-14%	4%	-12%	5%	-5%	-6.8%	-10%	-19%
CC1CC(C)CN(S(=O)(=O)c2ccc(C(=O)N3CCOCC3)cc2)C1 (stereo not given)	-3%	-3%	19%	16%	?	.	8%	.
CCOC(=O)C1CCCN(c2c(NCCN(CC)c3ccccc3)c(=O)c2=O)C1 (stereo not given)	4%	3%	.	4%	.	-0.3%	-7%	1%
Cc1ccc(Nc2ncccc2C(=O)O)cc1C	2%	-26%	.	39%[activator]	.	-1.4%	1%	0%
CN(Cc1ccccc1)S(=O)(=O)c1ccc(NC(=O)C2CCCCC2C(=O)O)cc1 (stereo not given)	1%	.	1%	-2%	-3%	.	-25%	.
CCN(CC)CCNc1nc2cc(OC)c(OC)cc2c2nc(-c3ccccc3)nn12	0%	2%	?	?	?	-7.9%	-7%	11%
O=c1c2ccccc2c(C=Nc2cccc(S(=O)(=O)NC3=NCCCCC3)c2)c(O)n1Cc1ccccc1	0%	12%	.	-4%	.	.	12%	.
COc1ccccc1Nc1nc2ccc(Cl)cc2nc1-n1nc(C)cc1C	.	.	10%[46.1 µM]	12%	10%[46.1 µM]	0.4%	.	17%
C=CCc1ccc(OCCCCCN2CCOCC2)c(OC)c1	-2%	-15%	-24%[46.1 µM]	-11%	-10%	-0.9%	-3%	-3%
COCCNC(=O)CN1N=C(c2ccc(C)cc2)CCC1=O	-1%	0%	2%	-3%	-8%	.	-16%	.
O=C(CSc1nc2cc3ccccc3cc2[nH]1)Nc1ccc(F)cc1	.	1%	?	-4%&18%	?	-22%&-4.6%	-1%	?
COC(=O)c1c(S(N)(=O)=O)c2ccccc2n1C	5%	7%	0%	-1%	2%	-1.9%	25%	-12%
CC(C)(C)NC(=O)CN(C(=O)c1csnn1)c1cccc2c1CCCC2	-1%	.	?	24%	2%[46.1 µM]	.	-4%	.
CCOc1nc(N2CCOCC2)nc(N2CCOCC2)n1	1%	.	0%[14.2 µM]	1%	-5%	.	-1%	.
Cc1cc(NC(=O)/C=C/c2ccccc2Cl)no1	0%	-8%	4%	23%	14%	1.2%	-2%	-15%
CC1CCCC(C)N1C(=O)CSc1nnc(COc2cccc3cccnc23)o1 (stereo not given)	0%	8%	-13%[46.1 µM]	5%	-13%	.	-13%	.
Cc1cccc(-c2noc(CCC(=O)NCC3CCCO3)n2)c1 (stereo not given)	-1%	-5%	11%	9%	-2%	5.3%	-3%	0%
O=C(CNC(=O)c1ccco1)OCc1cccc(Cl)c1	2%	-4%	10%	-10%	-3%	0.6%	24%	2%
O=C(NCc1ccc(F)cc1)c1cccc(NC2=NC3CS(=O)(=O)CC3S2)c1 (stereo not given)	-3%	-3%	.	-2%	.	.	13%	.

Compound activity from PubChem.

This is a random part of the collection; about 4.7% have a hit in one of these screens.
